Bioassay records from PubChem.
VCAM-1 up – enhancers of VCAM-1 display on endothelial cells, cell-based, plate reader, pooled HUVEC, TNFa stimulus (AID 455). HUVEC TNFa-induced VCAM-1 immunofluorescence, plate reader; numbers were filed only for top-ranked candidate wells. augmentation, % at 5 µM. 10,000 compounds, 0.2% hits;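 active means a compound raising TNF-alpha-driven VCAM-1 surface staining, with its hit status upheld on visual or statistical review; inactive means the rest, including hits rejected on review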;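 further: 0% = TNFa with vehicle and 100% = strongest image-checked hit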
Proteasome disasm – inhibitors of ATP-driven 26S proteasome dissociation, primary screen, biochemical, bead-based flow cytometry, GFP-tagged proteasome. anti-FLAG beads, GFP-proteasome disassembly. inhibition of disassembly, % (test concentration not listed). 24,000 compounds, 0.2% hits;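 active means above 40%; inconclusive means likely self-fluorescent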;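 further: plate controls were ATP control with full disassembly for no effect and ATP-gamma-S intact proteasomes for full effect; higher percent means more bead fluorescence retained so stronger block of disassembly; stock transfer was 100 nL into about 10 µL; wells with too few beads may also be inconclusive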
* = called active by the depositor; i = inactive; ? = inconclusive; nt = not tested or not shown; & = joins results of further samples. These rows are one share of the data, so the mix of outcomes need not match the whole.

no. | SMILES | Proteasome disasm | VCAM-1 up
1 | COc1cccc(NS(=O)(=O)c2ccc3[nH]cc(C(=O)NCCCOC(C)C)c(=O)c3c2)c1 | -3.5 | nt
2 | c1ccc(-c2nnc(-c3ccco3)n2-c2ccccc2)cc1 | 0.6 | i
3 | COc1ccc(OC)c2[nH]c(=O)c(CCNC(=O)c3ccc(Br)o3)cc12 | -1.4 | nt
4 | O=C(CSc1nnc(CNC(=O)c2ccccc2F)o1)c1ccc(Cl)cc1 | 1.1 | nt
5 | CCN1CCN(c2ncnc3c2cnn3-c2ccc(C)cc2C)CC1 | -0.9 | i
6 | CCOC(=O)N1CCN(C(=O)CSCC(=O)N=c2sc3cc(OC)ccc3n2C)CC1 | 1.6 | nt
7 | O=C(NCCN1CCOCC1)c1ccc2c(c1)ncn2C1CCCC1 | 0.5 | nt
8 | c1ccc2c(Cn3ccnc3)c[nH]c2c1 | 1.2 | i
9 | O=C(COc1ccccc1)N1CCN(c2ncnc3c2cnn3-c2ccccc2)CC1 | -2.1 | i
10 | O=C(c1noc2c1CCCC2)N1CCN(c2ccccc2)CC1 | -0.1 | nt
11 | CCOc1ccc(NC(=O)CN2CCN(CC(=O)Nc3cccc(F)c3)CC2)cc1 | -1.1 | nt
12 | COc1cccc(C2CC(c3ccc(Cl)cc3Cl)n3nc(N)nc3N2)c1 (stereo not given) | 0.8 | nt
13 | Cc1nc(=S)n(-c2ccccc2)[nH]1 | -1.2 | i
14 | Cc1cc(C)n(-c2nnc(C)n2N)n1 | 0.1 | nt
15 | COc1ccc(C(C(C(=O)c2ccco2)N2CCOCC2)N2CCOCC2)cc1 (stereo not given) | -0.1 | i
16 | COC(=O)c1sc(N)c(C(=O)OC)c1COC(=O)C1CC(=O)N(Cc2ccco2)C1 (stereo not given) | ? | i
17 | COc1ccc(OCc2nnc3n2N=C(c2ccc(C)cc2)CS3)cc1 | -3.6 | nt
18 | COc1ccc(C(=O)NCc2n[nH]c(=S)n2-c2ccccc2)cc1OC | 0.1 | nt
19 | CC(=O)c1cc(C)ccc1OC(=O)c1cccc2nc(C)oc12 | -0.9 | nt
20 | Cc1nc2sc(C(c3cccc(F)c3)N3CCN(C(=O)c4ccco4)CC3)c(O)n2n1 (stereo not given) | -0.9 | i
21 | CCOC(=O)N1CCC(NC(=O)c2cc3c(-c4ccccc4F)nn(C)c3s2)CC1 | 1.8 | nt
22 | COc1ccc(-c2noc(CCC(=O)Nc3ccc4c(c3)OCCO4)n2)cc1 | -2.7 | nt
23 | O=C(Cn1nnc(-c2ccncc2)n1)Nc1ccc2c(c1)CCC2 | 2.3 | i
24 | COc1ccc(-c2c(C)nn3c(N4CCC(C(=O)NCCN(C)C)CC4)cc(C)nc23)cc1OC | -0.8 | nt
25 | COCCCNC(=O)C1CCCCN1S(=O)(=O)c1ccc(F)cc1 (stereo not given) | -1.0 | nt
26 | CCc1nn(CCCC(=O)N2CCc3ccccc3C2)c(=O)c2cc3occc3n12 | -1.1 | nt
27 | CC(C)(C)n1nnnc1CN1CCC(NC(=O)NC2CCCCC2)CC1 | -0.5 | i
28 | CC(C)CSc1nnc2[nH]c(=O)cc(N)n12 | -0.1 | nt
29 | CCCC(=O)Nc1cc(C)c(NC(=O)c2ccccn2)cn1 | -4.7 | i
30 | CC(NC(=O)Cc1cccs1)C(c1cccs1)N1CCN(c2ccccc2F)CC1 (stereo not given) | 1.6 | nt
31 | CC(C)CC(NS(=O)(=O)c1ccc2c(c1)oc(=O)n2C)C(=O)NCc1cccnc1 (stereo not given) | -2.8 | nt
32 | CCOc1ccc(OCC)c(NC(=O)CN(C)S(=O)(=O)c2cccc3nsnc23)c1 | 0.2 | nt
33 | O=C(O)CC1=C(O)C(=O)N(c2ccccc2)C1c1ccccc1 (stereo not given) | 1.6 | i
34 | COc1ccccc1NC(=O)CCN1C(=O)C2CC=C(Cl)CC2C1=O (stereo not given) | 6.0 | nt
35 | CCOC(=O)N1CCN(c2c(Nc3cc(C)[nH]n3)c(=O)c2=O)CC1 | -0.1 | nt
36 | c1cncc(-c2nnc(-c3ccco3)o2)c1 | 0.9 | i
37 | CCOC(=O)c1cccc(NC(=O)Cn2cnc3c2c(=O)n(C)c(=O)n3C)c1 | 0.2 | i
38 | Cc1c(C(=O)NCCc2ccccc2)oc2ccc(S(=O)(=O)N3CCC4(CC3)OCCO4)cc12 | 1.4 | nt
39 | CN(C)C(=O)Oc1cccc([N+](C)(C)C)c1 | -1.2&-0.5 | i
40 | CCOC(=O)c1c(NC(=O)C(F)(OC)C(F)(F)F)sc2c1CCN(C)C2 (stereo not given) | 8.0 | nt

Next part (3 carried over from the part before).
no. | SMILES | Proteasome disasm | VCAM-1 up
38 | Cc1c(C(=O)NCCc2ccccc2)oc2ccc(S(=O)(=O)N3CCC4(CC3)OCCO4)cc12 | 1.4 | nt
39 | CN(C)C(=O)Oc1cccc([N+](C)(C)C)c1 | -1.2&-0.5 | i
40 | CCOC(=O)c1c(NC(=O)C(F)(OC)C(F)(F)F)sc2c1CCN(C)C2 (stereo not given) | 8.0 | nt
41 | CCc1ccc(NC(=O)c2ccc3c(c2)C(=O)N(Cc2ccco2)C3=O)cc1 | 0.3 | nt
42 | Cc1ccccc1Nc1nn2c(=O)c3ccccc3nc2s1 | -2.4 | nt
43 | O=C(c1ccc(=O)[nH]c1)N(Cc1ccco1)C1(C(=O)NC2CCCCC2)CCCCC1 | 0.8 | nt
44 | CCOC(=O)c1ccc(NC(=O)Cn2nnc(-c3ccccc3C)n2)cc1 | 0.4 | nt
45 | COC(=O)c1sccc1NC(=O)c1csc(C)c1 | -0.1 | i
46 | C=C(C)c1cccc(C(C)(C)NC(=O)NCC2CCCO2)c1 (stereo not given) | 0.4 | i
47 | [O-][n+]1c2ccc3nonc3c2nn1-c1ccccc1Cl | -1.2 | i
48 | CC(C)=CCCC(C)CN(C)CCc1ccccn1 (stereo not given) | 2.0 | i
49 | COCCCNC(=O)C(Cc1ccccc1)NS(=O)(=O)c1ccc2c(c1)c(=O)n(C)c(=O)n2C (stereo not given) | -0.5 | i
50 | O=C(Nc1ccc2nc3n(c(=O)c2c1)CCCCC3)c1ccccn1 | -7.3 | nt
51 | CCc1ccc(OCC(=O)NCCN(C)C)c(Br)c1 | -1.3 | nt
52 | C=CCOc1ccc(CN(C)CC(=O)N(CC(C)C)c2c(N)n(CC(C)C)c(=O)[nH]c2=O)cc1 | 0.2 | i
53 | COc1cccc(-c2cc(C(F)(F)F)nc(NCc3ccco3)n2)c1 | -0.4 | i
54 | Cc1c(C(=O)N2CCOCC2)[nH]c2c1C(=O)CC(c1ccc(Cl)cc1)C2 (stereo not given) | -1.3 | nt
55 | Cc1ccc(C(=O)Nc2nc3c(s2)CCCC3)o1 | 1.5 | i
56 | COc1ccc2[nH]c(C)c(CCN3C(=O)C4CC=CCC4C3=O)c2c1 (stereo not given) | -1.7 | nt
57 | O=C(O)CCCCCCC1C(=O)NC(=O)N1CCC(O)C1CCCCC1 (stereo not given) | -0.5 | i
58 | CC(C)(C)NC(=O)Cn1nnc(-c2cccs2)n1 | 0.8 | i
59 | COc1cc(OC)c(OC)cc1CN(C)CCc1ccccn1 | -0.5 | i
60 | CC(=O)Nc1ccc(S(=O)(=O)c2ccc(N)cc2)cc1 | -1.1 | nt

An excerpt of these results, field by field:
(37) CCOC(=O)c1cccc(NC(=O)Cn2cnc3c2c(=O)n(C)c(=O)n3C)c1
- Proteasome disasm = 0.2
- VCAM-1 up = i

(15) COc1ccc(C(C(C(=O)c2ccco2)N2CCOCC2)N2CCOCC2)cc1 (stereo not given)
- Proteasome disasm = -0.1
- VCAM-1 up = i

(27) CC(C)(C)n1nnnc1CN1CCC(NC(=O)NC2CCCCC2)CC1
- Proteasome disasm = -0.5
- VCAM-1 up = i

Other compounds:
no. | SMILES | Proteasome disasm | VCAM-1 up
61 | CCC(C(=O)OC)n1cnc2c(cnn2-c2ccc(Cl)cc2)c1=O (stereo not given) | 0.4 | nt
62 | COc1cccc(-c2cc3nc4c(c(N5CCC6(CC5)OCCO6)n3n2)CCCC4)c1 | 2.3 | i
63 | COC(=O)c1cc2oc3ccccc3c2n1CC(=O)Nc1ccccc1OC | 1.2 | nt
64 | CNC(=O)CSc1nnc(-c2cccc(S(=O)(=O)N3CCOCC3)c2)n1-c1ccc(F)cc1 | 0.1 | i
65 | CC(=O)N1CN(C2CCS(=O)(=O)C2)Cc2c1sc1c2CCCC1 (stereo not given) | -0.1 | nt
66 | O=C(COc1ccc(Cl)cc1)NCc1nnc(SCC(=O)Nc2ccc3c(c2)OCCO3)o1 | 1.4 | i
67 | O=C(O)c1ccc2c(c1)C(=O)N(CCC1=CCCCC1)C2=O | -1.0 | nt
68 | Cn1c2c(c(=O)n(C)c1=O)C(c1cc3c(cc1Br)OCO3)CC(=O)N2 (stereo not given) | -0.8 | nt
69 | COc1ccc(S(=O)(=O)CCC(=O)NCCc2ccc(S(N)(=O)=O)cc2)cc1 | 1.4 | nt
70 | CCN(CC)CCNC(=O)c1ccc(N)cc1 | -0.1 | i
71 | Cc1cc(O)c(C(C)C)cc1NC(=O)Cn1nc(C)c2ccccc2c1=O | 0.0 | nt
72 | CCN(CC)C(=O)C1CC(c2ccc(OC)cc2)=NO1 (stereo not given) | 0.0 | nt
73 | N#CCSc1nnc2sc3ccccc3n12 | 0.5 | nt
74 | CCc1cccc(NC(=O)c2ccc(NS(=O)(=O)c3c(C)noc3C)cc2)c1 | 1.2 | nt
75 | C=CCNC(=O)CCCCCNS(=O)(=O)c1ccc(OC)cc1 | 0.8 | nt
76 | CCC1(C)Cc2c(C#N)c(N)n(N)c(=S)c2CO1 (stereo not given) | 0.9 | i
77 | Cc1nn(C)c(C)c1S(=O)(=O)N1CCCC(C(=O)NCC2COc3ccccc3O2)C1 (stereo not given) | 3.1 | nt
78 | CCOc1ccc(Nc2cc(C)nc3nc(C)nn23)cc1 | -0.3 | nt
79 | COc1ccc(CCNC(=O)C2CCN(S(=O)(=O)c3cc(OC)ccc3OC)CC2)cc1 | 0.1 | i
80 | CC1Cc2ccccc2N1C(=O)c1cnsn1 (stereo not given) | -5.6 | i
81 | COc1ccc(NC(=O)CCNS(=O)(=O)c2ccc3c(c2)c(=O)n(C)c(=O)n3C)cc1 | 0.1 | nt
82 | CCSc1nc(N)c(C#N)c(-c2ccccc2Cl)c1C#N | 20 | i
83 | CCOc1ccc(NS(=O)(=O)c2ccc3[nH]cc(C(=O)NCC4CCCO4)c(=O)c3c2)cc1 (stereo not given) | -1.1 | nt
84 | CC(=O)c1c(C)[nH]c(C(=O)N2c3ccccc3CC2C)c1C (stereo not given) | -0.1 | nt
85 | COCC(=O)NC(c1ccccc1)c1ccccc1 | -1.7 | i
86 | Cc1nc2c(C(=O)NCc3ccccc3)c[nH]n2c(=O)c1Cl | 0.2 | nt
87 | O=c1c2[nH]c3ccccc3c2ncn1CCCn1ccnc1 | -2.1 | i
88 | CCOC(=O)C1C2C=CC3(CN(c4ccc(Cl)c(F)c4)C(=O)C13)O2 (stereo not given) | -1.1 | nt
89 | CCC(CC)C(=O)NCCc1cc2c(OC)ccc(OC)c2[nH]c1=O | 0.3 | nt
90 | O=C1c2ccccc2C(Nc2ccc3c(c2)OCCO3)N1Cc1ccccc1 (stereo not given) | -0.3 | nt
91 | Cn1c2ccc(Cl)cc2c2nc3ccccc3nc21 | -1.2 | nt
92 | O=C1NC2=C(C(=O)CCC2)C(c2ccc3ncccc3c2)N1 (stereo not given) | -0.5 | i
93 | COC(=O)c1c(-c2ccco2)csc1NC(=O)C1CC=CCC1C(=O)O (stereo not given) | -0.8 | nt
94 | COc1ccc(C)cc1NC(=O)C1CCCN(S(=O)(=O)c2c(C)noc2/C=C/N(C)C)C1 (stereo not given) | 6.4 | nt
95 | CCOC(=O)c1sc(NC(=O)C2CC=CCC2C(=O)O)nc1C (stereo not given) | -2.6 | i
96 | COCCN1Cc2cccc(C(=O)Nc3ccc4c(c3)OCCO4)c2C1=O | -0.5 | nt
97 | Cc1ccc(Cn2c(=O)cc(C(=O)O)c3ccccc32)cc1 | 0.0 | nt
98 | CC(C)c1ccc(NC(=O)C(c2ccc3c(c2)OCO3)N2CCC3(CC2)OCCO3)cc1 (stereo not given) | -0.8 | nt
99 | Cc1c(C)n(C)c2ccc(C(=O)NCc3cccs3)cc12 | 2.2 | i
100 | CCOc1cccc2cc(-c3cn4cc(C)ccc4n3)c(=O)oc12 | -1.6 | nt
101 | O=S(NCc1ccco1)C12CC3CC(CC(C3)C1)C2 (stereo not given) | 2.6 | i
102 | COc1ccc(C(=O)NCCCCCC(=O)O)cc1OC | 0.9 | i
103 | CCOC(=O)c1[nH]c2c(c1C)C(=O)CC(c1ccc(F)cc1)C2 (stereo not given) | -0.3 | nt
104 | COc1ccc(-c2nc(CSCC(=O)N3CCc4ccccc43)c(C)o2)cc1OC | -0.4 | nt
105 | O=C(C1CCCCC1)N1CCC(c2nc3c(nnn3Cc3c(F)cccc3Cl)c(=O)[nH]2)CC1 | -0.1 | i
106 | COc1ccccc1CNC(=O)CCCn1c(=O)c2ccccc2n(CC(=O)NC2CCCC2)c1=O | -1.1 | nt
107 | CCC(=O)N1CC(C)C(=O)Nc2ccccc21 (stereo not given) | 0.0 | nt
108 | Cn1c(=O)cc(OCC(=O)NCCCN2CCN(c3cccc(Cl)c3)CC2)c2ccccc21 | 0.2 | i
109 | O=C(C1CC1)N1CCc2cc(S(=O)(=O)NC3CCN(Cc4ccccc4)CC3)ccc21 | 0.8 | nt
110 | Cc1cc(C(=O)CSCCCn2c(=O)[nH]c3ccccc32)c(C)n1C | 0.3 | i
111 | CCOc1ccc(C2N(c3ccc(F)cc3)C(=O)C3CCCN32)cc1 (stereo not given) | 27 | nt
112 | COc1cccc(-c2cc(C(=O)N3CCCCCC3)no2)c1 | 0.1 | i
113 | CC(=O)c1c(C)nc2nonc2c1N | -0.2 | nt
114 | COC(=O)CCC(=O)Nc1cccc(Cl)c1 | 0.9 | i
